# Screening results deposited in PubChem by Broad Institute.
# rRNA inh HTS: selective bacterial rRNA inhibition in E. coli. E. coli WT GFP vs humanized-ribosome RFP mutants, fluorescence, 24 h; hits give low values; DMSO median 0, no signal -100. GFP signal change (wild-type ribosome), % (test concentration not listed). 350,000 compounds, 1.6% hits;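 active means significant combined selectivity score with lowered wild-type GFP, culture density cut under 30%, mutant RFP and density less affected; inactive means any of these conditions unmet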; further: one replicate is shown; some compounds called inactive have numbers as strong as hits
# rRNA inh HTS OD600: also measured in rRNA inh HTS; calls as there; OD600 change, %; measured here: OD600 growth;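 optical density of the mix in the first replicate; 0 = DMSO median and -100 = no signal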
# rRNA inh HTS RFP: also measured in rRNA inh HTS; calls as there; RFP signal change, %; measured here: RFP humanized mutant strains;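 first replicate; 0 = DMSO median and -100 = no signal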
# Active calls of the source: *; & = joins results of further samples. These rows are one share of the data; the hit share may differ from the screen's.
rRNA inh HTS	rRNA inh HTS OD600	rRNA inh HTS RFP	molecule
-7	-7	0.1	Cc1coc2c(C)c3oc(=O)c(CCC(=O)N[C@H](C(=O)O)C(C)C)c(C)c3cc12
2	8	-0.8	O=C(C[C@H]1CC[C@H](NC(=O)Nc2cc(F)ccc2F)[C@@H](CO)O1)NCc1ccncn1
0	14	-3.7	COc1ccc(S(=O)(=O)N[C@@H]2CC[C@@H](CCn3cc(C(C)C)nn3)O[C@H]2CO)cc1
-2	-4	0.5	COCC(=O)Nc1ccc2c(c1)[C@H]1C[C@@H](CC(=O)NCc3ccc4c(c3)OCO4)O[C@H](CO)[C@H]1O2
3	-2	-2.8	C[C@@H]1CN([C@@H](C)CO)C(=O)c2cccc(NS(=O)(=O)c3ccccc3)c2O[C@@H]1CN(C)Cc1ccc(C(F)(F)F)cc1
10	7	3.1	COc1ccc(C(C)(NC(C)=O)c2nc(-c3ccncc3)cs2)cc1 (stereo unspecified)
0	-14	6.3	C[C@H]1CN([C@@H](C)CO)C(=O)CCCn2nncc2CO[C@H]1CN(C)S(=O)(=O)c1ccc(-c2ccccc2)cc1
-60	-77	-17	CC(O)(c1ccc(F)c(F)c1)c1nc(/C=C/c2ccccc2)cs1 (stereo unspecified)
-2	-5	0.0	COc1ccc(NC(=O)N(C)C[C@@H]2OCCCC[C@H](C)Oc3ccc(NC(=O)CCC(F)(F)F)cc3C(=O)N([C@H](C)CO)C[C@@H]2C)cc1
3	6	2.3	Cc1ccc(S(=O)(=O)Nc2ccc3c(c2)C(=O)N([C@@H](C)CO)C[C@@H](C)[C@H](CN(C)C(=O)Nc2c(C)noc2C)OCCCC[C@@H](C)O3)cc1
3	20	1.9	C[C@H](CO)N1C[C@H](C)[C@@H](CN(C)Cc2ccc(C(F)(F)F)cc2)Oc2ccc(NC(=O)Nc3cccc4ccccc34)cc2C1=O
3	9	2.3	O=C(c1ccccn1)N1CC2(C1)[C@@H](c1ccccc1)[C@H](CO)N2C(=O)CC1CC1
-1	-1	0.7	COc1ccccc1S(=O)(=O)N[C@@H]1CC[C@H](CCNC(=O)C2CCCCC2)O[C@H]1CO
2	3	-0.7	C[C@@H]1CN([C@@H](C)CO)C(=O)c2cc(NC(=O)CCN3CCOCC3)ccc2O[C@@H]1CN(C)Cc1ccc(C(=O)O)cc1
-28	-51	29	CCCC#Cc1ccc([C@@H]2[C@H]3CN(C(=O)Nc4cccc(F)c4)CC(=O)N3[C@H]2CO)cc1

# The list goes on, starting with the last 5 of the part before.
rRNA inh HTS	rRNA inh HTS OD600	rRNA inh HTS RFP	molecule
3	20	1.9	C[C@H](CO)N1C[C@H](C)[C@@H](CN(C)Cc2ccc(C(F)(F)F)cc2)Oc2ccc(NC(=O)Nc3cccc4ccccc34)cc2C1=O
3	9	2.3	O=C(c1ccccn1)N1CC2(C1)[C@@H](c1ccccc1)[C@H](CO)N2C(=O)CC1CC1
-1	-1	0.7	COc1ccccc1S(=O)(=O)N[C@@H]1CC[C@H](CCNC(=O)C2CCCCC2)O[C@H]1CO
2	3	-0.7	C[C@@H]1CN([C@@H](C)CO)C(=O)c2cc(NC(=O)CCN3CCOCC3)ccc2O[C@@H]1CN(C)Cc1ccc(C(=O)O)cc1
-28	-51	29	CCCC#Cc1ccc([C@@H]2[C@H]3CN(C(=O)Nc4cccc(F)c4)CC(=O)N3[C@H]2CO)cc1
2	8	4.8	O=C(Nc1ccc(C(=O)N2CCN(c3ccncc3)CC2)cc1)c1ccc(Br)o1
4	2	0.3	CNC[C@@H]1OCCCC[C@H](C)Oc2ccc(NS(=O)(=O)c3ccc(F)cc3)cc2C(=O)N([C@@H](C)CO)C[C@@H]1C
-2	-2	-0.9	C[C@H](CO)N1C[C@H](C)[C@H](CN(C)C(=O)c2cnccn2)Oc2ncc(C#Cc3ccccn3)cc2C1=O
-1	11	-2.6	Cc1noc(C)c1NC(=O)Nc1cccc2c1O[C@H](CN(C)S(C)(=O)=O)[C@H](C)CN([C@@H](C)CO)C2=O
1	0	1.5	CNC(=O)C[C@H]1CC[C@H]2[C@H](COc3ccc(NC(=O)Nc4cc(C)cc(C)c4)cc3C(=O)N2C)O1
16	1	0.1	CN(C(=O)[C@H]1O[C@@H](n2cnc3c(=O)[nH]c(N)nc32)[C@H](O)[C@@H]1O)C1CCCCC1
2	1	3.1	C[C@@H]1CCCCO[C@@H](CN(C)CC2CCCCC2)[C@H](C)CN([C@@H](C)CO)C(=O)c2cc(NS(=O)(=O)c3ccc(F)cc3)ccc2O1
4	3	0.2	C[C@H]1CN([C@@H](C)CO)C(=O)CCCn2nncc2CO[C@H]1CN(C)C(=O)Nc1ccc(F)cc1
3	1	1.0	C[C@H]1CN([C@@H](C)CO)C(=O)c2cccc(NC(=O)Nc3ccccc3)c2O[C@H]1CN(C)Cc1ccccc1
-9	-11	-5.3	CO[C@@H]1CN(C)C(=O)c2ccc(NC(C)=O)cc2OC[C@H](C)N(Cc2cc(F)ccc2F)C[C@@H]1C
-33	-68	9.4	CSCCC(c1nnnn1C1CCCCC1)N1CCN(C/C=C/c2ccccc2)CC1 (stereo unspecified)
0	-12	-1.6	C[C@H]1CN([C@@H](C)CO)C(=O)c2cc(NC(=O)Cc3cn(C)c4ccccc34)ccc2O[C@H]1CN(C)C(=O)NC1CCCCC1
9	7	1.2	COc1ccccc1/C=N/Nc1nc(C)cc(=O)[nH]1
6	10	-2.4	C[C@@H]1CN([C@H](C)CO)C(=O)c2cc(NC(=O)C3CCCCC3)ccc2O[C@@H]1CN(C)Cc1ccc(C(=O)O)cc1
1	9	0.9	CO[C@@H]1CC[C@@H]2CCN(C)C(=O)[C@H](C)N(C)C(=O)c3cc(C#N)ccc3OC[C@@H]1O2

rRNA inh HTS	rRNA inh HTS OD600	rRNA inh HTS RFP	molecule
-2	-4	-1.7	CNC(=O)C[C@@H]1CC[C@@H]2[C@H](COc3ccc(NC(=O)c4ccc(C(F)(F)F)cc4)cc3C(=O)N2C)O1
1	-8	7.0	COc1ccc(NC(=O)Nc2ccc3c(c2)C(=O)N([C@@H](C)CO)C[C@H](C)[C@@H](CN(C)Cc2ccccc2)OCCCC[C@@H](C)O3)cc1
-2	-7	-0.9	COC(=O)C[C@H]1C[C@@H]2c3cc(NC(=O)c4ccc5c(c4)OCO5)ccc3O[C@@H]2[C@H](CO)O1
-12	-18	2.0	CN1C[C@@H]2[C@H](c3ccccc31)[C@@H](CO)N2S(=O)(=O)c1ccccc1
6	1	0.9	COCC(=O)N1[C@@H](CO)[C@@H]2c3ccccc3N(C(=O)NC(C)C)C[C@@H]21
2	-5	-1.8	CO[C@H]1CN(C)C(=O)c2cc(NC(C)=O)ccc2OC[C@@H](C)N(C(=O)c2cccnc2)C[C@@H]1C
14	15	2.0	CC(=O)Nc1ccc(C(=O)OCC(=O)NC2CCCCCC2)cc1
-1	0	1.4	O=C(Nc1ccc(Cl)cc1)N[C@H]1CC[C@@H](CCn2cc(-c3ccccc3F)nn2)O[C@@H]1CO
-1	-3	-1.5	COc1cccc(C(=O)Nc2ccc3c(c2)C(=O)N(C)C[C@@H](OC)[C@H](C)CN(CC2CC2)[C@@H](C)CO3)c1
3	4	-0.7	COc1ccc(S(=O)(=O)Nc2cccc3c2O[C@H](CN(C)C(=O)Nc2ccc4c(c2)OCO4)[C@H](C)CN([C@@H](C)CO)C3=O)cc1
10	0	-0.8	COC(=O)[C@]12C[C@H](CC(=O)NCc3cccc4ccccc34)C(=O)N(CCC3=CCCCC3)C1=C[C@H](COCc1ccccc1)O[C@@H]2C
-40	-43	-13	C[C@H](O)[C@@H]1CN2CCc3c([nH]c4ccccc34)[C@@H]2C[C@@H]1N(C)C(=O)Nc1ccc(Br)cc1
-24	-31	-8.2	COc1ccc(CC(N)c2csc(NC(=O)NC(c3ccccc3)c3ccccc3)n2)cc1 (stereo unspecified)
0	0	2.2	Cc1ccc(S(=O)(=O)N2C[C@@H](O)COC[C@H]3O[C@@H](CC(=O)N[C@@H]4CCN(Cc5ccccc5)C4)CC[C@@H]32)cc1
-4	-20	3.9	CC(=O)N(C)C[C@H]1Oc2cc(C#CC3CCCCC3)ccc2S(=O)(=O)N([C@H](C)CO)C[C@H]1C

# 5 compounds picked at random from those above, as already listed:
rRNA inh HTS	rRNA inh HTS OD600	rRNA inh HTS RFP	molecule
3	4	-0.7	COc1ccc(S(=O)(=O)Nc2cccc3c2O[C@H](CN(C)C(=O)Nc2ccc4c(c2)OCO4)[C@H](C)CN([C@@H](C)CO)C3=O)cc1
2	-5	-1.8	CO[C@H]1CN(C)C(=O)c2cc(NC(C)=O)ccc2OC[C@@H](C)N(C(=O)c2cccnc2)C[C@@H]1C
-24	-31	-8.2	COc1ccc(CC(N)c2csc(NC(=O)NC(c3ccccc3)c3ccccc3)n2)cc1 (stereo unspecified)
6	1	0.9	COCC(=O)N1[C@@H](CO)[C@@H]2c3ccccc3N(C(=O)NC(C)C)C[C@@H]21
10	0	-0.8	COC(=O)[C@]12C[C@H](CC(=O)NCc3cccc4ccccc34)C(=O)N(CCC3=CCCCC3)C1=C[C@H](COCc1ccccc1)O[C@@H]2C

# The listing continues.
rRNA inh HTS	rRNA inh HTS OD600	rRNA inh HTS RFP	molecule
0	0	0.9	COc1ccc(NC(=O)N(C)C[C@H]2Oc3c(NS(=O)(=O)c4ccc(Cl)cc4)cccc3C(=O)N([C@@H](C)CO)C[C@H]2C)cc1
3	19	-0.4	Cc1noc(C)c1NC(=O)Nc1ccc2c(c1)C(=O)N([C@@H](C)CO)C[C@H](C)[C@@H](CN(C)CC1CC1)OCCCC[C@H](C)O2
-7	0	0.9	C[C@H](CO)N1C[C@H](C)[C@H](CN(C)C(=O)Nc2ccc(F)cc2)Oc2cc(-c3cccc(C(=O)N(C)C)c3)ccc2S1(=O)=O
-3	3	-0.9	C[C@@H]1CCCCO[C@@H](CN(C)C(=O)Nc2ccc(F)cc2)[C@H](C)CN([C@@H](C)CO)C(=O)c2cc(N(C)C)ccc2O1
1	10	-0.8	CCCC(=O)N1CC2(CN(C(=O)NC(C)C)C2)c2c([nH]c3cc(OC)ccc23)[C@H]1CO
-10	-19	-0.5	COCC#Cc1ccc2c(c1)O[C@H](CN(C)S(=O)(=O)c1cccc(F)c1)[C@@H](C)CN([C@H](C)CO)S2(=O)=O
4	9	-4.1	CC(C)NC(=O)N1[C@H](CO)[C@@H](c2ccccc2)[C@H]1CN(C)C(=O)c1ccncc1
-2	8	1.7	COc1ccc(NC(=O)Nc2ccc3c(c2)[C@H]2C[C@H](CC(=O)N4CCCCC4)O[C@@H](CO)[C@H]2O3)cc1
1	7	-1.9	C[C@@H]1CN([C@@H](C)CO)C(=O)Cc2cc(NC(=O)CCN3CCOCC3)ccc2O[C@@H]1CN(C)S(=O)(=O)c1ccc(F)cc1
4	5	-0.8	COc1ccc(NC(=O)Nc2ccc3c(c2)C(=O)N([C@H](C)CO)C[C@@H](C)[C@@H](CN(C)C(=O)NC(C)C)O3)cc1
-5	0	8.2	COc1ccc(C(=O)N(c2c(C)cccc2C)C(COC(C)=O)COC(C)=O)cc1
1	27	2.7	CN(C)C(=O)c1ccc(-c2ccccc2[C@H]2[C@@H](C#N)N(C(=O)C3CCC3)[C@H]2CO)cc1
-2	1	2.1	C[C@H]1CN([C@@H](C)CO)C(=O)c2cc(/C=C/c3ccccc3)cnc2O[C@@H]1CN(C)C(=O)Nc1ccc(C(F)(F)F)cc1
1	-1	2.0	C[C@@H]1CCCCO[C@H](CN(C)C(=O)c2ccccc2)[C@@H](C)CN([C@H](C)CO)C(=O)c2cc(NC(=O)Cc3ccccc3)ccc2O1
-1	2	-1.4	C[C@@H]1CN(C)C(=O)Cc2cc(NS(C)(=O)=O)ccc2O[C@H]1CN(C)S(C)(=O)=O

rRNA inh HTS	rRNA inh HTS OD600	rRNA inh HTS RFP	molecule
-5	-2	-3.5	O=C(C[C@H]1C[C@H]2c3cc(NS(=O)(=O)c4ccccc4)ccc3O[C@H]2[C@@H](CO)O1)NC1CCCCC1
4	4	-2.3	COc1ccc(CN(C)C[C@H]2Oc3c(NS(=O)(=O)c4c(C)noc4C)cccc3C(=O)N([C@H](C)CO)C[C@H]2C)cc1
-6	-4	-3.5	COc1ccc(S(=O)(=O)N(C)C[C@H]2Oc3cc(C#CC4CCCCC4)ccc3S(=O)(=O)N([C@@H](C)CO)C[C@@H]2C)cc1
15	16	2.2	CCCNC(=O)C1(C)CCCN(C(=O)c2ccc3snnc3c2)C1 (stereo unspecified)
-3	4	-1.4	CCC(=O)N1[C@H](CNC(C)=O)[C@H](c2ccc(-c3cccc(F)c3)cc2)[C@@H]1CO
0	-8	-0.4	COc1ccc(-c2cn(CC[C@@H]3CC[C@@H](NC(=O)NC(C)C)[C@@H](CO)O3)nn2)cc1
-1	-6	1.0	COc1ccc(NC(=O)Nc2ccc3c(c2)C(=O)N([C@H](C)CO)C[C@H](C)[C@H](CN(C)Cc2ccncc2)OCCCC[C@@H](C)O3)cc1
3	12	1.5	CC[C@@H]1C/C=C\C[C@@H](C(C)C)NC(=O)CCC(=O)N1
3	12	0.7	COc1ccc(NC(=O)Nc2ccc3c(c2)C(=O)N([C@H](C)CO)C[C@H](C)[C@@H](CN(C)S(C)(=O)=O)OCCCC[C@@H](C)O3)cc1
2	7	-0.8	CO[C@@H]1CN(C)C(=O)c2ccc(NC(=O)NC(C)C)cc2OC[C@@H](C)N(CC2CC2)C[C@H]1C
-6	0	2.0	COc1ccc(-c2ccc3c(c2)O[C@@H](CN(C)Cc2ccccc2C(=O)O)[C@@H](C)CN([C@@H](C)CO)S3(=O)=O)cc1
5	17	0.7	Clc1cccc(Cc2c(-c3ccccc3)nc3c4ccccc4ccn23)c1
0&1	3&11	-4.3&-0.1	O=C(Nc1ccc2c(c1)OCO2)N1[C@@H]2CNC[C@H]1C2c1ccc(-c2cccnc2)cc1 (stereo partly specified)
2	0	-2.4	C[C@@H]1CN([C@H](C)CO)C(=O)c2cc(NS(C)(=O)=O)ccc2O[C@@H]1CN(C)Cc1ccc2c(c1)OCO2
